# 2A StopGo – High Throughput Screening for Foot and Mouth Disease Virus Antivirals. human cells with a luciferase reporter of 2A StopGo recoding; control for the full effect not named in the record. Potency, µM (doses to about 57.9 µM), for inactives: at the top dose signal change, negative = less light. 1.2% of 410,000 active. AID 1159524, 2015; active = well fitted falling curve with a large enough effect; inconclusive = small, poorly fitted or top-dose-only effect; inactive = no such curve, though single readings can be large or run the other way; tested in HEK293T cells; further: on the % scale 0 is the no-effect control and ±100 the full control effect; nearly all actives have a fitted effect of over 45% in size; luciferase light after 4 h
# LASV entry inh – qHTS for Inhibitors of binding or entry into cells for Lassa Virus; Lassa virus pseudotype entry inhibition, cell reporter; control for the full effect not named in the record; 1.2% of 300,000 active; Potency, µM (highest dose often 37.9 µM), inactives show at the top dose activity change, negative = inhibition, usual class: inhibitors; AID 540256, 2011; active means well fitted inhibition curve with a large enough effect; inconclusive means small, poorly fitted or top-dose-only effect, or effect the other way; inactive means flat fitted curve, though single readings scatter; tested in HEK293 cells; further: on the % scale 0 is the no-effect control and ±100 the full control effect; nearly all actives have a fitted effect of over 50% in size; luciferase read-out
# RE007 growth inh – qHTS Assay for Inhibitors of the HIV-1 protein Vpr | Potency, µM (highest dose often 92.2 µM), without a hit: at the top dose activity change, negative = less growth | S. pombe RE007 Vpr strain, BacTiter-Glo ATP luminescence, 24 h; control for the full effect not named in the record | 0.21% of 360,000 active; active = well fitted falling curve with a large enough effect; inconclusive = small, poorly fitted or top-dose-only effect; inactive = no such curve, though single readings can be large or run the other way;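 further: on the % scale 0 is the no-effect control and ±100 the full control effect; nearly all actives have a fitted effect of over 50% in size; the assay follows cell death caused by Vpr and the record does not say whether a fall means rescue or toxicity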
#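 Fission yeast RE007 carrying one integrated HIV-1 vpr copy, seeded at OD 0.01 in PMG+AL medium with 23 nL pinned compound. Grown 24 h at 30 degrees; viability read by BacTiter-Glo luminescence after 5 min.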
# Cruzain noTriton – qHTS Assay for Promiscuous and Specific Inhibitors of Cruzain (without detergent); Cruzipain (Trypanosoma cruzi), P25779; 2.3% of 200,000 active; purified cruzain, Z-FR-AMC fluorescence, no detergent; Potency, µM, for the others: max response, negative = inhibition, most hits filed as inhibitors; AID 1476, 2009;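 further: plate controls were enzyme without inhibitor for no effect and buffer without enzyme for full effect; nearly all actives have a fitted effect of over 40% in size; top concentration of the series not given in the record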
# Target sequence (P25779 123-467 limits assumed): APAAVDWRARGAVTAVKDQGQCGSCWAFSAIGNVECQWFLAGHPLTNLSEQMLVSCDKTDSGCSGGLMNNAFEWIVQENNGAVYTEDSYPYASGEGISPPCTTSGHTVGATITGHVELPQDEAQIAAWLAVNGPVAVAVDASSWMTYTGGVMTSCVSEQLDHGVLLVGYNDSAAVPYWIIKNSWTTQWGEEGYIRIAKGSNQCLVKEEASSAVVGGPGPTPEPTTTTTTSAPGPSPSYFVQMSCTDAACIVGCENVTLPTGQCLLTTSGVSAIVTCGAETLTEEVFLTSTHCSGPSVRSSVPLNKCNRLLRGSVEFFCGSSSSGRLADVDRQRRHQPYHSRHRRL
#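 Detergent-free condition (0.00005% Triton X-100) in acetate buffer pH 5.5 with DTT. 1.5 nM enzyme and compound were pre-mixed 15 min, then 2 uM Z-FR-AMC substrate added; reaction progress from fluorescence change between first and third reads (60 s).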
# NS1 function inh – qHTS Assay for Inhibitors of Influenza NS1 Protein Function. S. cerevisiae slowed by influenza A NS1, growth recovery by OD600. Potency, µM (series often up to 46.1 µM), for the others: at the highest dose activity, positive = more growth. AID 2326, 2010. 0.4% of 270,000 active; active means well fitted rising curve with a large enough effect; inconclusive means small, poorly fitted or top-dose-only effect; inactive means no such curve, though single readings can be large or run the other way; further: nearly all actives have a fitted effect of over 50% in size
#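 In this qHTS, NS1 from influenza A is expressed in budding yeast, where it slows growth. Cells are switched from glucose to 2% galactose medium (pH 6.0, -URA), treated with compound, and growth recovery is read at OD600.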
# Cruzain Triton – qHTS Assay for Promiscuous and Specific Inhibitors of Cruzain (with detergent) | purified cruzain, Z-FR-AMC fluorescence, 0.01% Triton | Potency, µM, without a hit: max response, negative = inhibition, usual class: inhibitors | 0.43% of 200,000 active | AID 1478, 2009;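 further: plate controls were neutral wells for no effect and buffer without enzyme for full effect; nearly all actives have a fitted effect of over 40% in size; top concentration of the series not given in the record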
#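 Read-out: AMC fluorescence (360 nm excitation, 450 nm emission), four reads over 2 min, first-to-third difference used. Conditions: cruzain 1.5 nM, Z-FR-AMC 2 uM, pH 5.5 acetate, 5 mM DTT, 0.01% Triton X-100.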
# SARS PLpro yeast – qHTS of Yeast-based Assay for SARS-CoV PLP. Potency, µM (doses to about 32.9 µM), inactives show at the highest dose activity, positive = growth rescue. 0.19% of 330,000 active. S. cerevisiae expressing SARS-CoV PLpro, growth rescue; control for the full effect not named in the record; active means well fitted rising curve with a large enough effect; inconclusive means small, poorly fitted or top-dose-only effect; inactive means no such curve, though single readings can be large or run the other way; further: 0% is about no effect; nearly all actives have a fitted effect of over 55% in size; growth read by luminescence after 48 h
# Marburg entry inh – qHTS for inhibitors of binding or entry into cells for Marburg Virus. Marburg virus pseudotyped entry inhibition, cell reporter; control for the full effect not named in the record; about a third of the inactives were read at about 46 µM. Potency, µM (doses to about 37.8 µM), without a hit: at the top dose activity change, negative = inhibition, actives largely listed as inhibitors. 1.8% of 300,000 active. AID 540276, 2011; active = well fitted inhibition curve with a large enough effect; inconclusive = small, poorly fitted or top-dose-only effect, or effect the other way; inactive = flat fitted curve, though single readings scatter; tested in HEK293 cells; about a fifth of its hits are not listed in these tables; further: on the % scale 0 is the no-effect control and ±100 the full control effect; luciferase read-out
# * hit, by the source's call; ? = inconclusive; nt = no result given; & = joins results of further samples; [ ] = another dose, or the depositor's remark. Unless noted, the call rests on the fitted dose curve; in most records, active means well fitted curve in the direction sought with a large enough effect; inconclusive means small, poorly fitted or top-dose-only effect, or another doubt; inactive means no such curve, though single readings can be large; an effect the other way counts as inactive or inconclusive. Potency means the concentration at half of the fitted maximal effect.
mol,2A StopGo,LASV entry inh,RE007 growth inh,Cruzain noTriton,NS1 function inh,Cruzain Triton,SARS PLpro yeast,Marburg entry inh
CCOc1ccc(CCNC(=O)c2ccc(CS(=O)Cc3ccc(Cl)cc3)o2)cc1 (stereo not given),?,-14%[46.1 µM],-9%,?,9%,-5.0%,?,nt
O=S(=O)(c1ccc(-c2n[nH]c(=S)o2)cc1)N1CCCCC1,5%,8%,-4%,nt,3%,nt,1%,?
Cc1nn2c(-c3ccccc3)ccnc2c1Br,7%,nt,-28%,nt,-4%,nt,0%,nt
CCOC(=O)C1CCN(C(=O)COc2cc(C)c(Br)c(C)c2)CC1,-30%,-13%,-19%,?,-36%,-1.4%,-3%,10%
O=[N+]([O-])c1ccc2c(c1)C=C1CCCCC1(N1CCCCC1)O2 (stereo not given),-12%,-1%,3%,-8%,-1%,-5.5%,-1%,-4%
O=C(Nc1ccncc1)Nc1ccc(Cl)cc1,7%,5%[46.1 µM],-14%,nt,-17%,nt,-3%,3%[46.1 µM]
COc1ccc(C(CNC(=O)c2oc3cc(C)c(C)cc3c2C)N2CCCCC2)cc1 (stereo not given),?,0%&12%[46.1 µM],-1%,3%,-6%,1.6%,-15%,?
COc1ccc(C(=O)Nc2c(N)nc(SCC(=O)NCC3CCCO3)[nH]c2=O)cc1OC (stereo not given),1%,?,-7%,nt,2%,nt,1%,?
O=C(O)c1cc(S(=O)(=O)NC2CCCc3ccccc32)ccc1O (stereo not given),-3%,11%,0%,nt,6%,nt,2%,0%[46.1 µM]
Cc1nc(CSc2ccc(Br)cc2)cs1,12%,?,-16%,nt,0%,nt,0%,4%[46.1 µM]
CCOc1cnn(-c2cc(Oc3ccc(C)cc3)ncn2)c(=O)c1Cl,0%,-15%,?,7%,-2%,2.3%,5%,5%
CCC1(c2ccccc2)C(=O)N=C(N)N(C#N)C1=O (stereo not given),-13%,1%,39%,nt,nt,nt,nt,21%
Cc1cccc(NC(=O)c2c(NC(=O)c3cccs3)sc3c2CCC(C)C3)c1 (stereo not given),?,-3%[46.1 µM],nt,6%,nt,0.5%,nt,nt
Cc1ccc(O)c(Nc2ncnc3ccccc23)c1,-1%,1%[46.1 µM],-5%,nt,-16%,nt,3%,-2%[46.1 µM]
CCc1ccccc1NC(=O)CN1CCN(C(=O)c2ccc(OCc3cn4ccccc4n3)cc2)CC1,?,1%,-13%,nt,nt,nt,?,2%
COc1ccc(NC(=O)N2CCN(S(=O)(=O)c3ccc4c(ccn4C)c3)CC2)cc1OC,-13%,1%[46.1 µM],nt,?,nt,-3.1%,nt,nt
CC(C)(C)OC(=O)NC1CC2CCCC(C1)N2Cc1ccccc1 (stereo not given),-2%,13%,4%,nt,28%,nt,11%,3%
Cc1cc(NS(=O)(=O)c2ccc(NC(=O)Cc3ccc([N+](=O)[O-])cc3)cc2)nc(C)n1,29%,7%,2%,nt,nt,nt,-19%,-2%
CCCOc1ccc(/C=N/NC(=O)CSCc2ccc([N+](=O)[O-])cc2)cc1OCC,?,-16%,-2%,-1%,0%,-4.6%,2%,-10%
CN(Cc1cccs1)C(=O)CSc1nnnn1C,-1%,8%,-10%,?,6%,0.6%,1%,9%
Cc1c(C(=O)N2c3ccccc3CC2C)oc2ccccc12 (stereo not given),50%[activator],nt,-15%,nt,-89%,nt,-19%,nt
O=C(c1cccc([N+](=O)[O-])c1)n1nc(-c2ccccc2)nc1NCc1ccccc1,35%[activator],6%,-10%,-29%,1%,-4.4%,28%,0%
Cc1ccc2cc(CN(Cc3ccc4c(c3)OCO4)Cc3nnnn3Cc3ccco3)c(=O)[nH]c2c1C,11%,?,-4%,32µM*,-1%,-1.2%,-2%,?
COc1cc2c(cc1OC)CN(S(=O)(=O)c1ccccc1F)CC2,-16%,nt,7%,nt,-2%,nt,-4%,nt
O=C(NCC(=O)N(Cc1ccc(F)cc1)C(C(=O)NC1CCCC1)c1ccco1)c1ccco1 (stereo not given),-2%,-27%,5%,2%,0%,-0.1%,1%,-2%&20%
O=C(COc1cccnc1[N+](=O)[O-])N1N=C(c2ccc(Cl)cc2)CC1c1ccco1 (stereo not given),-15%,-20%[46.1 µM],15%,nt,nt,nt,3%,-5%[46.1 µM]
Cc1nc(SCC(=O)O)c(C#N)c2c1CCCC2,-2%,nt,20%,nt,0%,nt,0%,nt
Cc1cccc(N2N=C(C(=O)OCC(=O)c3ccccc3)CCC2=O)c1,4%,?,10%,nt,nt,nt,-11%,14%
C#CCNc1c2c(nc3nnnn13)CCCC2,-13%,-12%[46.1 µM],4%,nt,nt,nt,0%,1%[46.1 µM]
COc1ccc(-c2cc(C(=O)Nc3ccccc3O)c3ccccc3n2)cc1OC,-26%,0%[46.1 µM],-3%,nt,16%,nt,-1%,1%[46.1 µM]
Nc1nc(SCC(=O)N2CCN(c3ccccc3)CC2)n[nH]1,-16%,nt,5%,nt,12%,nt,2%,nt
CCCC(CCC)C(=O)NNc1cc(=O)c2c(=O)n(C)c(=O)n(C)c2[nH]1,-11%,6%,0%,?,2%,1.4%,-4%,16%
COc1ccccc1OCC(=O)Nc1oc(-c2ccccc2)c(-c2ccccc2)c1C#N,?,-19%,-8%,?,16%,0.1%,9%,-18%
COc1ccc(-c2cn3cccnc3n2)cc1NC(=O)C1CCCC1,15%,-19%,-9%,2%,-3%,-0.6%,0%,-1%
CCOC(=O)C1=C(C)NC2=C(C(=O)c3ccccc32)C1c1cccnc1 (stereo not given),-11%,3%,-25%,11%,-4%,-0.9%,0%,-18%
C/C(Cc1ccccc1)=N\NC(=O)CNC(=O)COc1cccc(C)c1,-22%,nt,13%,nt,7%,nt,0%,nt
O=C(NCCc1c[nH]c2ccccc12)C1CCN(S(=O)(=O)c2ccc(F)cc2)CC1,-16%,?,1%,nt,-7%,nt,2%,?
CCCNC(=O)C(Sc1ccccc1)c1ccccc1 (stereo not given),-6%,-4%,-9%,-3%,5%,1.0%,24%,5%
COc1ccc(OC)c(N(CC(=O)N2CCCC2)S(C)(=O)=O)c1,6%,nt,-3%,nt,-6%,nt,-1%,nt
Cc1cccc(C)c1NC(=O)CSc1nnc(-c2ccoc2C)n1CCc1ccccc1,-10%,-8%,15%,-1%,-5%,2.5%,0%,-2%
COc1ccc(-c2oc3cccnc3c2C#CCO)cc1,-22%,nt,4%,nt,-15%,nt,3%,nt
Oc1c(C(Nc2nccs2)c2ccc(C(F)(F)F)cc2)ccc2cccnc12 (stereo not given),?,?,-19%,nt,nt,nt,-26%,4.5µM*
CCn1c(=O)cc(OCC(=O)NCCCN2CC(C)CC(C)C2)c2ccccc21 (stereo not given),16%,0%,4%,6%,-7%,2.4%,0%,-23%&-23%
COc1cccc(C(=O)Nc2c(C(=O)Nc3ccc(F)cc3)oc3ccccc23)c1OC,25%,-1%[46.1 µM],nt,-4%,nt,-2.9%,nt,-5%[46.1 µM]
COc1ccc(C2C(C(C)=O)=C(O)C(=O)N2CCN(C)C)cc1OC (stereo not given),nt,nt,nt,4%,2%,-2.8%,-8%,-1%
Cc1cc2n(n1)SC(Nc1cc(Cl)ccc1Cl)N2 (stereo not given),0%,-1%,0%,-6%,1%,-4.8%,-10%,6%
Cc1ccc(NC(=O)c2ccc3nsnc3c2)c(C)c1,33%[activator],nt,4%,nt,0%,nt,-3%,nt
Cc1cc([N+](=O)[O-])nn1CCCC(=O)N1CCN(c2ccccc2)CC1,-3%,-3%,8%,5%,-3%,-1.3%,-9%,9%
CCOc1ccc(-c2nc(N)ncc2Oc2cccc(OC)c2)c(O)c1,?,?,-6%,?,-3%,-7.7%,0%,?
CCCOc1ccc(C(=O)NNC(=S)NC(=O)c2cc(-c3ccccc3)nc3ccccc23)cc1,-1%,2%,22%,?,11%,0.1%,0%,-21%
C=CCSC1=C(C#N)C(c2ccc(OCC)cc2)CC(=O)N1 (stereo not given),-21%,nt,-18%,-7%,-6%,0.2%,1%,nt
N/C(=N\c1nc(CSc2ccccn2)cc(=O)[nH]1)Nc1ccc(Cl)cc1Cl,-12%,nt,0%,nt,1%,nt,0%,nt
Cc1ccc(OC(=O)C2CSC3(C)CCC(=O)N23)c(Br)c1 (stereo not given),-14%,-23%,29%,nt,nt,nt,-2%,-7%[46.1 µM]
Cc1onc(-c2ccccc2)c1C(=O)Nc1ccc2c(c1)OCO2,nt,11%,9%,-17%,3%,0.1%,6%,4%
COc1ccc(C(c2nnnn2CC2CCCO2)N2CCN(c3cccc(C)c3C)CC2)cc1 (stereo not given),-6%,?,14%,?,-43%,-2.5%,-1%,?
Cc1cc(N2CCCC2)nc(SCC(=O)c2ccccc2)n1,30%[activator],20%,-14%,12%,10%,-6.5%,-13%,3%
Cc1ncc(CN2CCCC(C(=O)c3cccc(Cl)c3)C2)s1 (stereo not given),-25%,-3%,3%,nt,1%,nt,0%,-18%
CN(C(=O)COC(=O)CN1C(=O)c2ccccc2C1=O)c1c(N)n(Cc2ccccc2)c(=O)[nH]c1=O,-9%,5%,27%,nt,nt,nt,-6%,-10%
N#CC(C#N)=NNc1ccc(S(=O)(=O)N2CCCC2)cc1,32µM*,28%,0%,-12%,10%,-10%,5%,?
Cc1cccc(C)c1NC(=O)C(=O)NCC1CCCN1S(=O)(=O)c1ccccc1 (stereo not given),nt,nt,9%,nt,nt,nt,0%,nt
C/C(Cl)=C/CN1C(=O)C2C3C=CC(C3)C2C1=O (stereo not given),7%,-18%,-3%,-2%,15%,0.0%,0%,3%
